Choline anaer gr: choline-fed anaerobic bacterial growth inhibition; 55,000 compounds, 0.2% hits; Gram-negative bacterium anaerobic choline minimal medium, absorbance growth; stronger effect = lower value; many inactives read as strong as hits in the columns shown; calls only;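 active means growth z-score on choline under -2 at 7 or 20 h with little or no fall on glycerol, limits in tiers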;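 further: stock transfer was 300 nL into about 50 µL; the organism is E. coli; final concentration not given here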
Choline anaer gr early: also measured in Choline anaer gr; calls as there; z-score; measured here: choline growth z-score, timepoint 1;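 score of optical density at 7 h as mean of two plates; lower means less growth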
Starred values were filed as active, the others as inactive; i = inactive; & = joins results of further samples.

SMILES	Choline anaer gr	Choline anaer gr early
O=C(NCC(c1ccccc1)N1CCCC1)c1cc(-c2ccc(Br)cc2)on1 (stereo unspecified)	i	0.13
O=C(CN1C(=O)CSc2ccc(C(=O)N3CCCC3)cc21)NCCCN1CCCC1	i	1
Cc1noc(-c2ccc(NC(=O)C3CC(=O)N(Cc4ccccc4)C3)cc2)n1 (stereo unspecified)	i	0.07
CC(=O)Nc1cnc(N2CCN(c3cc(C)ccc3C)CC2)c(C(=O)O)c1	i	-0.55
CCOC(=O)c1cc(S(=O)(=O)NCCC(=O)NC2CCCC2)cn1C	i	-0.35
OCCN1CCN(CCCN2c3ccccc3C=Cc3ccccc32)CC1	i	0.52&0.59
O=C(CSc1nc2nc[nH]c2c(=O)[nH]1)N1CCOCC1	i	-0.13
CC1=C(c2ccc(F)cc2)S(=O)(=O)N(CC(=O)NCc2ccc(C)cc2)C1=O	i	-0.01
COC(=O)c1cnc(N2CCN(C)CC2)c2ccccc12	i	-1.1
CCCCC[C@H](O)/C=C/[C@@H]1[C@@H](C/C=C\CCCC(=O)N(CC)CC)[C@@H](O)C[C@H]1O	i	-1.6
O=C(Nc1ccccc1)c1cc([N+](=O)[O-])ccc1Cl	i	0.98&0.26&0&0.43
CCOCCCNC(=O)c1cccc(Nc2cc(-c3cccc(C)c3)ncn2)c1	i	-0.18
O=C(NCc1cccnc1)C1CCN(Cc2cc3ccccc3n2Cc2cccc(Cl)c2)CC1	i	0.72
CCCCN(CC)c1ccc2nnc(CCc3nc(-c4ccc(Br)cc4)no3)n2n1	i	0.74
CCN(CC)S(=O)(=O)c1ccc2c(c1)nc(C(F)(F)F)n2CCC(=O)Nc1ccc(OC)cc1	i	0.51
Cc1cc(C(=O)NCCc2c[nH]c3ccccc23)c2c(=O)n(C)c(=O)n(C)c2n1	i	0.09
CCCCCC1OC1C/C=C\C/C=C\C/C=C\CCCC(=O)O (stereo unspecified)	i	0.82
Cc1ccnc(NC(c2ccccn2)c2c(NC(=O)c3ccccc3)sc(C)c2C)c1 (stereo unspecified)	i	-0.31
[Cl-].[Cl][Pt].[NH2-].[NH2-].c1ccncc1	i	0.18
CCSc1nn(CC(=O)Nc2ccccc2CC)c(N)c1S(=O)(=O)c1ccc(C)cc1	i	-0.79
CC1CCCN(C(=O)Cn2c(=O)c(=O)n(Cc3ccc(Cl)cc3)c3ccccc32)C1 (stereo unspecified)	i	-1.9
Cc1ccc(C2=NN3C(C2)c2ccccc2OC32CCCC2)o1 (stereo unspecified)	i	-0.21
Cc1nc2ncccc2c(=O)n1-c1cccc(NC(=O)CC2CCCCC2)c1	i	-0.46
COc1cccc(CN2CCCC2c2cc(C(C)C)on2)c1OC (stereo unspecified)	i	1.1
Cc1cc(NS(=O)(=O)c2cc(-c3ccn[nH]3)sc2C)ccc1Br	i	-0.47
COc1ccc(NC(=O)Nc2cccc(-c3nnc(-c4ccccc4)o3)c2)cc1OC	i	0.47
Brc1cccc(-c2nnc3sc(-c4cccnc4)nn23)c1	i	0.05
CCCCCCCCCCCCC/C=C/[C@@H](O)[C@H](CO)NC(=O)CCCCCCC	i	0.24
CCOC(=O)CNC(=O)Nc1ncc(-c2ccccc2)n1C	i	-0.23
CCOCCCNC(=O)C1c2c(n(C)c3ccccc23)SCC(=O)N1c1ccc(F)cc1 (stereo unspecified)	i	-0.18

Compound profiles, from the list above.
`CCOCCCNC(=O)C1c2c(n(C)c3ccccc23)SCC(=O)N1c1ccc(F)cc1` (stereo unspecified) as listed: Choline anaer gr: i; Choline anaer gr early: -0.18
`Cc1cc(C(=O)NCCc2c[nH]c3ccccc23)c2c(=O)n(C)c(=O)n(C)c2n1` as listed: Choline anaer gr: i; Choline anaer gr early: 0.09
`CCCCCCCCCCCCC/C=C/[C@@H](O)[C@H](CO)NC(=O)CCCCCCC` as listed: Choline anaer gr: i; Choline anaer gr early: 0.24

Continued:
SMILES	Choline anaer gr	Choline anaer gr early
CC1CC(C)CN(c2c(-c3ccccc3)c(=O)c2=O)C1 (stereo unspecified)	i	0.29
O=C(NCc1nnc(C(=O)Nc2ccc(F)cc2)s1)Nc1ccc(Br)cc1	i	-0.6
O=c1c2cc3c(cc2nc(SCc2nc(-c4ccc(Br)cc4)no2)n1C1CC1)OCO3	i	-1.9
Cc1ccc(-c2nc3ccccc3c3nnc(SC(C)C(=O)N4CCCC4)n23)cc1 (stereo unspecified)	i	0.96
Cn1cc(C(=O)O)c(S(=O)(=O)N2CCCC2)n1	i	-0.77
CC(=O)N1CCC(C(=O)NCc2ccccc2)(N(Cc2ccc(OC(C)C)cc2)C(=O)c2ccc(C)cc2)CC1	i	-1.1
Cc1ccc(NC(=O)c2nnn(Cc3ccc(Br)cc3F)c2N)c(Cl)c1	i	0.36
O=C(CCC1=NS(=O)(=O)c2ccccc2N1)NCc1ccc(F)cc1	i	-0.55
Cc1cc2c(cc1S(=O)(=O)N1CCN(C(=O)c3cc4ccccc4[nH]3)CC1)OC(C)C(=O)N2 (stereo unspecified)	i	0.23
COc1ccc(C2C(C(=O)Nc3ccccc3)=C(C)Nc3c(C(=O)Nc4ccccc4)cnn32)cc1 (stereo unspecified)	i	-2.3
Cc1nc(N2CCCC2)c2c(C)c(C(=O)NCCC3=CCCCC3)sc2n1	i	1
Cc1ccc(CNC(=O)c2nccnc2C(=O)O)cc1	i	0.76
Cc1nn(-c2ccc(F)cc2)c2sc(C(=O)NC3CCCC3)cc12	i	-0.35
Cc1cc(C)c(NC(=O)CSC2=Nc3ccccc3N=C(c3ccccn3)C2)c(C)c1	i	-1.1
Cn1cccc1Cc1nnc(SCC(=O)NCC2CCCO2)n1-c1ccc(Cl)cc1 (stereo unspecified)	i	-0.14

By substructure: those above containing bromine (seven)
SMILES	Choline anaer gr	Choline anaer gr early
O=C(NCC(c1ccccc1)N1CCCC1)c1cc(-c2ccc(Br)cc2)on1 (stereo unspecified)	i	0.13
CCCCN(CC)c1ccc2nnc(CCc3nc(-c4ccc(Br)cc4)no3)n2n1	i	0.74
Cc1cc(NS(=O)(=O)c2cc(-c3ccn[nH]3)sc2C)ccc1Br	i	-0.47
Brc1cccc(-c2nnc3sc(-c4cccnc4)nn23)c1	i	0.05
O=C(NCc1nnc(C(=O)Nc2ccc(F)cc2)s1)Nc1ccc(Br)cc1	i	-0.6
O=c1c2cc3c(cc2nc(SCc2nc(-c4ccc(Br)cc4)no2)n1C1CC1)OCO3	i	-1.9
Cc1ccc(NC(=O)c2nnn(Cc3ccc(Br)cc3F)c2N)c(Cl)c1	i	0.36

Next part
SMILES	Choline anaer gr	Choline anaer gr early
CCc1nc(-c2csc(S(=O)(=O)N3CCC(C(=O)Nc4ccc(C)cn4)CC3)c2)no1	i	0.66
CC(C)c1cc(=O)n2[nH]c(CNc3ccccc3)nc2n1	i	-0.27
COC(=O)c1ccccc1NC(=O)N1CCC(n2cnc3cccnc32)CC1	i	-0.06
CCOC(=O)c1cc2c(cc1CSc1nc3ccccc3c(=O)n1CC1COc3ccccc3O1)OCOC2 (stereo unspecified)	i	0.23
Cc1cc(C2CCCN2Cc2ccc(F)c(F)c2)no1 (stereo unspecified)	i	0.02
O=C(O)C1=CCCNC1	i	0.39&0.14
CCOC(=O)C1=C(C)NC(c2ccccc2)=C(C(=O)OCc2ccc([N+](=O)[O-])cc2)C1C#Cc1ccccc1 (stereo unspecified)	i	0.89
COc1ccc(-c2cn3cccnc3n2)cc1NC(=O)C1c2ccccc2Oc2ccccc21	i	-0.35
O=C(Nc1sc2c(c1C(=O)NCC1CCCO1)CCCC2)c1csnn1 (stereo unspecified)	i	0.92
CN1C(C(=O)c2ccccc2)=C(OC(=O)CN2C(=O)c3ccccc3C2=O)c2ccccc2S1(=O)=O	i	-0.17
Cc1ccc(CSc2nnc3n(CC(C)C)c(=O)c4cc(F)ccc4n23)cc1	i	0.16
Cc1ccc(-c2noc(-c3ccccc3NC(=O)C3CC(=O)N(c4ccc(C)cc4)C3)n2)cc1 (stereo unspecified)	i	0.5
Cc1ccc(S(=O)(=O)Nc2ccc(-c3ccc(N4CCOCC4)nn3)cc2)cc1C	i	1.3
CCCS(=O)(=O)N1CCC(N2CCN(Cc3ccccc3)C(=O)C2=O)CC1	i	-0.27
Cc1nc(Nc2ccc(F)cc2)c2c(C)noc2n1	i	-0.83
Cc1cc(-c2cc(S(=O)(=O)Nc3cc(Cl)ccc3C)c(C)s2)on1	i	0.87
Cc1cc(C)c(S(=O)(=O)N2CCCC2c2ccc(F)cc2)cc1C (stereo unspecified)	i	1.2
Cc1ccc(Cn2cc(C(=O)Nc3ccccc3C(N)=O)ccc2=O)cc1	i	-0.7
Cc1cccc(NC(=O)c2ccc3c(c2)NC(=O)CO3)c1C	i	2.6
CCN(Cc1ccccc1)c1ccc(NC(=O)c2cccc(C)c2)cc1C(=O)O	i	-0.52
NC(=O)C1CCN(C(=O)C2=Cc3ccccc3OC2)CC1	i	0.85
CC(CC(=O)N1CCN(Cc2ccc3c(c2)OCO3)CC1)CC1=NS(=O)(=O)c2ccccc2N1 (stereo unspecified)	i	-0.41
CCOC(=O)C1CCC(CNC(=O)Nc2c[nH]c(=O)[nH]c2=O)CC1 (stereo unspecified)	i	0.04
CCN(CC)c1ccc(NC(=O)CN2C(=O)C(C)(C)c3ccccc32)c(C)c1	i	-0.04
CC1=C(C(=O)Nc2ccc(Cl)cc2)SCCO1	i	0.02
COc1ccc(-c2nc3c(s2)CN(C(=O)c2cccc(C)c2)CC3)cc1	i	0.03
COc1cccc(CC(=O)N2CCC[C@@H]2C(=O)NCc2csc(C)n2)c1	i	-1.8
O=C(Cn1c(CO)cnc1SCc1ccc(Br)cc1)NC1CC1	i	-0.4
CCCn1cnnc1C1CCCN(C(=O)c2n[nH]c3c2CCCC3)C1 (stereo unspecified)	i	0.44
O=C(NC1CCCCC1)N1CCC(N2CCN(Cc3ccc(F)cc3)C(=O)C2=O)CC1	i	-0.08
COc1cccc(Cn2cnc3c2c(=O)n(C)c(=O)n3C)c1	i	0.38
Cc1nc(-c2csc(S(=O)(=O)N3CCCC(C(=O)NCc4cccnc4)C3)c2)no1 (stereo unspecified)	i	0.31
COc1ccc(Nc2c(C#N)cnc3cc(OC)c(OC)cc23)cc1OC	i	4.8
CNC(=O)N1CCC(CC(=O)NCc2ccccc2)CC1	i	-0.68
Cc1nn(-c2ccc(Cl)cc2)c(C)c1S(=O)(=O)NC1CC1	i	0.37
Cc1ccnc(Nc2nc(-c3ccc(C)cc3C)cs2)c1	i	-0.73
O=C(CC1Oc2ccccc2NC1=O)NCc1ccc2c(c1)OCO2 (stereo unspecified)	i	0.92
COc1ccc(-c2cc3ncc4c(n3n2)-c2cc(F)ccc2OC4)cc1	i	-2.2
O=C(CCCN1CCSc2ccccc21)Nc1ccc(Br)cc1	i	0.98
OC[C@H]1O[C@@H](n2cnc3c(NC4CCCC4)nc(Cl)nc32)[C@H](O)[C@@H]1O	i	0.53
Cc1ccc2ccc3cc(C(=O)Nc4ccccn4)nc3c2[nH]1	i	2.1
COc1ccc(NS(=O)(=O)c2cc(-c3nc(C)c(C(=O)N4CCCC4)s3)n(C)c2)c(OC)c1	i	-0.27
COc1ccc(NC(=O)c2ccc(Oc3nccnc3Oc3ccc(C)cc3)cc2)cc1OC	i	0.46
CCN(Cc1ccccc1)C(=O)c1cc(NC(=O)c2ccccc2Cl)cnc1N1CCNCC1	i	0.9
O=C(NCCCN1CCCC1)C1CCCN(c2ncc(-c3ccc(F)cc3)cn2)C1 (stereo unspecified)	i	-0.42
Cc1cc(C2CCCN2S(=O)(=O)c2ccc(C(C)C)cc2)on1 (stereo unspecified)	i	-0.13
COCCn1c(C2CCCN2C(C)=O)nc2ccccc21 (stereo unspecified)	i	1
CCCCn1nc2ccc(S(=O)(=O)N3CCC(C)CC3)cn2c1=O	i	0.92
Cc1nn(-c2nc3ccccc3o2)c2c1C(c1ccc(F)c(Br)c1)CC(=O)N2 (stereo unspecified)	i	-0.68
O=S(=O)(Cc1ccccc1)N1CCN(c2cc(-c3cccc(F)c3)ncn2)CC1	i	0.42
Cc1csc2nc(CSc3nc(-c4ccccc4)nc4cc(=O)[nH]n34)cc(=O)n12	i	0.55
CC(C)CCNC(=O)C1(c2ccc(NC(=O)c3ccc(Br)cc3)cc2)CC1	i	0.97
COCCCN1CCc2nc(SCc3ccc(C)cc3)[nH]c(=O)c2C1	i	-1.4
CCCCN(C)c1ncc(C(=O)O)cc1NS(=O)(=O)c1ccc(Br)cc1	i	-0.12
Cc1ccc(NC(=O)c2ccc(=O)n(CCC(=O)N3CCN(c4ccccn4)CC3)n2)cc1	i	1.5
Cc1cc(C)c(C)c(C(=O)CC2(O)C(=O)Nc3ccccc32)c1C (stereo unspecified)	i	-0.43
O=c1[nH]c(=S)[nH]c2c1CN(Cc1ccc(F)cc1)CC2	i	-1.2
O=C1COc2ccccc2N1Cc1nc(-c2ccc3c(c2)Sc2ccccc2C(=O)N3C2CCCC2)no1	i	1.2
CCOc1cc(C2Nc3ccc(C)cc3[C@H]3OCC[C@@H]23)cc(Cl)c1OCC (stereo partly specified)	i	0.12
Cc1ccsc1CN1CCCC1c1cc(C(C)C)on1 (stereo unspecified)	i	0.71

(cont.)
SMILES	Choline anaer gr	Choline anaer gr early
O=C(Nc1ccccc1)Nc1c(-c2ccsc2)nc2ccccn12	i	1.4
Cc1cc(C2CCCN2C(=O)c2cc(C(C)C)no2)on1 (stereo unspecified)	i	-0.84
COc1ccc(-c2cc(C(=O)N3CCCC3c3cc(C)on3)no2)cc1OC (stereo unspecified)	i	0.5
O=C(NCCc1c[nH]c2ccccc12)c1ccccc1NC(=O)c1nsc2ccccc12	i	0.76
O=C(NCCCN1CCN(c2ccccc2F)CC1)c1csc(-c2ccncc2)n1	i	-1.2
COc1cc(-c2nc3nc[nH]n3c2Nc2ccc(C(C)C)cc2)ccc1O	i	1.4

Some of the compounds tested. The share of hits here may be higher or lower than overall.
